MgrA-DNA mod: S. aureus MgrA-DNA binding modulation; fluorescence polarization; inhibition, %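 (about 10 µg/mL by stock and volumes)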; actives 0.13% (n = 84,000);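 active = above 50% in either of two replicates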;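 also: 0% = protein plus DNA without compound and 100% = DNA alone without protein; higher means less MgrA bound to DNA so lower polarization; one replicate is shown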
Sa helicase inh: blocks Staphylococcus aureus DNA helicase; purified S. aureus helicase, fluorescence unwinding assay; about half of the hits fall short of the stated cut; inhibition, %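 (tested at about 80 µM)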; actives 0.05% (n = 120,000); AID 485395;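 active = both duplicates at 50% or more, or one of them with a favoured structure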;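 also: 0% = mean of negative control wells and 100% = mean of positive control wells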
Numbers without * were called inactive; x = not tested or not shown; & = joins results of further samples. Some of the compounds tested, so the mix of outcomes need not match the whole.

| SMILES | Sa helicase inh | MgrA-DNA mod |
| --- | --- | --- |
| O=C(Nc1ccccc1-c1nc2ccccc2[nH]1)c1ccc(Oc2ccccc2)cc1 | x | 0.1 |
| CC(C)N(C(=O)C[n+]1ccsc1N)c1ccccc1 | -17 | x |
| O=C(O)CCC(=O)Nc1cccc(C(=O)Nc2cccc(Cl)c2)c1 | 11 | x |
| O=C(c1ccc2c(c1)OCO2)N1CCN(CCN2C(=O)c3cccc4cccc(c34)C2=O)CC1 | x | -1.9 |
| Cc1cc(OC(=O)C2CC(=O)N(c3ccc(F)cc3)C2)ccc1N1C(=O)CCC1=O (configuration not stated) | 24 | 3.5 |
| Cn1ccnc1S(=O)(=O)/C(C#N)=C/c1ccccc1Cl | x | -1.9 |
| CC1COc2c(N3CCN(C)CC3)c(F)cc3c(=O)c(C(=O)N4CCN(S(=O)(=O)c5ccccc5)CC4)cn1c23 (configuration not stated) | -9 | x |
| C[C@H](c1ccccc1)N1C[C@@H](CO)OC1=O | 0 | -2.6 |
| CCOC(=O)c1[nH]c(C)c(CCC(=O)O)c1C | -4 | x |
| CCN1CCN(CC(O)COc2ccc(-c3ccccc3)cc2)CC1 (configuration not stated) | -5 | x |
| Cc1cc(Cl)c(CC(=O)O)c(Cl)n1 | -13 | x |
| CC(C)(C)CC(=O)Nc1nc2ccc(S(C)(=O)=O)cc2s1 | 1 | 0.2 |
| COc1ccc(-c2ccnc(SCC(=O)N3CCN(c4ccccc4)CC3)n2)cc1 | x | -1.4 |
| CC(C)(C)c1csc(-c2ccc(O)cc2)n1 | 14 | x |
| CC(=O)NC1=NC(=O)C(C)S1 (configuration not stated) | -1 | 0.2 |
| C[C@@H]1NC(=O)[C@@H]2C[C@@H](OC(=O)c3ccccc3)CN2C1=O | 9 | 4.4 |
| CC(C)c1ccc2occ(CC(=O)Nc3nnc(C(C)C)s3)c2c1 | -13 | x |
| CC(C)(C)c1ccc(S(=O)(=O)CCSc2nc3c(cc2C#N)CCCC3)cc1 | 3 | 1.6 |
| O=C(NCCCN1CCOCC1)c1nn2c(C(F)(F)F)cc(-c3ccc(Cl)cc3)nc2c1Cl | x | 1.4 |
| O=C(O)CC(C(=O)Nc1ccccc1I)C1CCCO1 (configuration not stated) | 5 | x |

As entered above.
COc1ccc(-c2ccnc(SCC(=O)N3CCN(c4ccccc4)CC3)n2)cc1 – MgrA-DNA mod = -1.4
O=C(O)CC(C(=O)Nc1ccccc1I)C1CCCO1 (configuration not stated) – Sa helicase inh = 5
CC(C)(C)c1ccc(S(=O)(=O)CCSc2nc3c(cc2C#N)CCCC3)cc1 – MgrA-DNA mod = 1.6
O=C(NCCCN1CCOCC1)c1nn2c(C(F)(F)F)cc(-c3ccc(Cl)cc3)nc2c1Cl – MgrA-DNA mod = 1.4
CC(C)(C)c1csc(-c2ccc(O)cc2)n1 – Sa helicase inh = 14

(continued)
| SMILES | Sa helicase inh | MgrA-DNA mod |
| --- | --- | --- |
| C#CCn1c(=NC(C)=O)sc2cc(NC(C)=O)ccc21 | 16 | x |
| CN1CCC(N(C)CC(O)COCc2ccccc2F)CC1 (configuration not stated) | -6 | -2.2 |
| O=C(O)Cn1c(=O)oc2cc(Cl)ccc21 | 15 | x |
| COCc1cc(=O)[nH]c(=S)[nH]1 | x | 0.1 |
| CC(C)C(NC(=O)c1ccccc1NC(=O)c1ccco1)C(=O)N1CCCCC1 (configuration not stated) | 11 | x |
| CP(=O)(c1nccn1-c1ccc(Cl)nn1)N1CCCCCC1 (configuration not stated) | -16 | x |
| O=C(NCc1ccc(N2CCCC2=O)cc1)Nc1ccccc1 | -14 | 0.1 |
| Cc1ccc(NC(=O)C(Sc2nnc(-c3ccc4c(c3)OCO4)o2)c2ccccc2)cc1 (configuration not stated) | -6 | x |
| Nc1nonc1NC(=O)N/N=C/c1ccc(C(F)(F)F)cc1 | 14 | -0.8 |
| C/C(=N\O)c1cc(-c2ccccc2)no1 | x | 2.4 |
| COc1ccc(Cc2nnc(Nc3ccc4c(c3)OCO4)[nH]c2=O)cc1 | 5 | x |
| CCOC(=O)c1[nH]c(COC(=O)c2ccccc2NC(=O)c2ccco2)c(C(=O)OCC)c1C | 10 | x |
| Cc1nn(-c2ccccc2)c(C)c1N=Nc1cc(Cl)cc(Cl)c1 | x | -0.2 |
| C=CCn1cc(C(=O)OC)c(=O)c2cc(S(=O)(=O)N(CC)CC)ccc21 | 15 | -0.1 |
| C/C(=C\C#N)N1CCOCC1 | -17 | x |
| O=C(NCC1COc2ccccc2O1)c1ccco1 (configuration not stated) | -2 | x |
| CC(C)n1ncc2c(C(=O)OCc3ccc(C#N)cc3)cc(-c3ccccc3)nc21 | 11 | x |
| CCN1C(=O)CCSc2ccccc21 | 5 | x |
| Cc1ccsc1/C=N/N1CCN(Cc2ccc(Cl)cc2)CC1 | 26 | 0.8 |
| CCC(Sc1nc(NC(C)=O)c(NC(=O)c2cccs2)c(=O)[nH]1)C(=O)O (configuration not stated) | 1 | x |
| Cc1c(NC(=O)CCN2C(=O)/C(=C/c3ccc(Cl)cc3Cl)SC2=S)c(=O)n(-c2ccccc2)n1C | x | 1.5 |
| CC(=O)N(c1ccc2oc3c(c2c1)CCCC3)S(=O)(=O)c1ccccc1 | -10 | 2.3 |
| CCOC(=O)c1cc(-c2ccc(C)cc2)n(CCC(=O)NC2CCCCCC2)c1C | -7 | 1.1 |
| CCOC(=O)C1=C(CC)NC2=C(C(=O)CCC2)C1c1ccc(Cl)cc1 (configuration not stated) | -13 | 5.0 |
| N#CC1=C(N)N(c2ccccc2)c2oc(-c3ccccc3)nc2C1c1cccc(O)c1 (configuration not stated) | 8 | 0.2 |
| COC(=O)c1ccc(-c2ncc(-c3ccc(N(C)C)cc3)o2)cc1 | -14 | x |
| CC(=O)SCCC(=O)Nc1ccccc1 | 6 | -1.0 |
| O=c1c(Cl)c(N2CCOCC2)cnn1-c1ccccc1 | 19 | x |
| CC(NC(=O)c1ccco1)C(=O)Nc1ccc(OCc2ccccc2)cc1 (configuration not stated) | 1 | -4.8 |
| Cc1cnn(-c2ccccc2)c(=O)c1N(C)C | -2 | x |
| COC(=O)c1ccccc1NC(=O)CNc1cc(Cl)ccc1N1CCOCC1 | 1 | x |
| COC(=O)c1ccc(C(=O)OC)c(NC(C)=O)c1 | 3 | 0.0 |
| CC(=O)NC(=S)Nc1ccc(Nc2ccccc2)cc1 | 2 | 0.1 |
| C=CCN1C(=O)S/C(=C/c2ccc(Sc3nc4ccccc4[nH]3)o2)C1=O | 11 | 0.0 |
| CCS(=O)(=O)CS(=O)(=O)CC | -29 | x |
| S=C(NCCN1CCOCC1)N1CCc2ccccc21 | 6 | 0.9 |
| Cc1noc(C)c1COc1ccc(C(=O)OCCN2C(=O)c3ccccc3C2=O)cc1 | 32 | x |
| CCn1c(C)c(C(C)(C)C)s/c1=N\S(=O)(=O)c1ccc(Cl)cc1 | 8 | x |
| CCOC(=O)c1c(-c2ccccc2)oc2ccc(OC(=O)c3ccc(Cl)cc3)cc12 | x | -0.8 |
| O=C1NCC(c2ccccc2)C1C(=O)N/N=C\c1cc2c(cc1Br)OCO2 (configuration not stated) | 5 | 1.5 |

Record cards, as listed above:
`Cc1noc(C)c1COc1ccc(C(=O)OCCN2C(=O)c3ccccc3C2=O)cc1` as listed: Sa helicase inh: 32; MgrA-DNA mod: x
`CCS(=O)(=O)CS(=O)(=O)CC` as listed: Sa helicase inh: -29; MgrA-DNA mod: x

Remaining list, next part
| SMILES | Sa helicase inh | MgrA-DNA mod |
| --- | --- | --- |
| S=C1NCN(CC2CC2)CN1 | x | -0.8 |
| CC(C(=O)N1CCc2ccccc21)N1C(=O)c2ccccc2C1=O (configuration not stated) | -1 | 0.8 |
| Cc1c(C(=O)NCc2ccccc2)oc2ccc3c(c12)C=CC1(CCCC1)O3 | 7 | 0.1 |
| Cc1ccc(NC(=O)c2ccc(Cl)c(Cl)c2)c(C)c1 | x | 0.3 |
| NC(=O)CSc1nnc(Cn2cnc3ccccc32)o1 | 1 | 0.1 |
| COc1ccc(OCC(O)CNC(C)(C)C)cc1 (configuration not stated) | x | -0.1 |
| O=C(Nc1ccc2oc(-c3ccncc3)nc2c1)c1ccco1 | -4 | -2.5 |
| Cc1[nH]c(=S)c(C#N)c(C)c1CC(=O)c1ccc(Br)cc1 | 13 | -2.1 |
| O=C(O)CCCNC1=NCCC1 | 0 | 2.7 |
| Nc1c(Cl)ncnc1N1CCCCC1 | 12 | -0.4 |
| CCc1cc(=O)oc2cc(OC(=O)c3ccco3)c(Cl)cc12 | 4 | 0.1 |
| COC(=O)C1=C2NC(=O)c3ccccc3N2C(=O)C1 | 2 | x |
| O=C(Nc1nccs1)c1cc2ccccc2oc1=Nc1ccc(Cl)cc1 | 3 | -0.7 |
| CC1=CC(C)C2C(=O)N(c3ccccc3)NC(=O)C2C1 (configuration not stated) | 3 | 3.8 |
| CC(Sc1nc(-c2cccnc2)ccc1C#N)C(=O)O (configuration not stated) | 4 | -1.9 |
| Cc1nc(C)c(-c2ccn(C(=O)NC(C)C)n2)s1 | x | -0.4 |
| CC(=O)NC1=NN(C(C)=O)C(/C=C/c2ccccc2)S1 (configuration not stated) | 9 | 4.3 |
| COC(=O)COc1ccccc1C1NC(=O)NC(C)=C1C(=O)Nc1ccccc1OC (configuration not stated) | 10 | 0.8 |
| CN(CC(=O)Nc1ccc2c(c1)OC1(CCCCC1)O2)C1CCCCC1 | -6 | x |
| O=C(Nc1ccccc1C(=O)NCCCN1CCOCC1)c1ccccc1 | x | -2.4 |
| Cc1ccc2nc3c(cc(C(=O)NCCN4CCOCC4)c(=N)n3C(C)C)c(=O)n2c1 | -9 | x |
| CN(Cc1cccs1)C(=O)c1cc(S(=O)(=O)N2CCOCC2)ccc1F | -3 | x |
| COc1ccc(-c2cc(C)no2)cc1S(=O)(=O)Nc1ccc(CN2CCCCC2)cc1 | -4 | x |
| CC1(C)CC(=O)C2=C(C1)OC1=C(C(=O)CC(C)(C)C1)C2c1cccnc1 | -9 | -0.8 |
| O=P(O)(C1Cc2ccccc2C1)C(O)c1ccco1 (configuration not stated) | 7 | 0.7 |
| O=C1CC(c2nc3ccccc3[nH]2)CN1c1ccccc1Cl (configuration not stated) | 21 | x |
| Nc1ccc2c(c1)C(=O)NC2=O | 1 | 1.8 |
| CC/C(=C(/CC)c1ccc(O)cc1)c1ccc(O)cc1 | x | -2.2&-1.1 |
| CCOC(=O)Cc1cc(C)[nH]c1C(=O)OCC | x | -0.8 |
| O=C(Nc1cccc([N+](=O)[O-])c1)C1COc2ccccc2O1 (configuration not stated) | x | -1.4 |

Among those listed so far, 2 have bromine:
| SMILES | Sa helicase inh | MgrA-DNA mod |
| --- | --- | --- |
| O=C1NCC(c2ccccc2)C1C(=O)N/N=C\c1cc2c(cc1Br)OCO2 (configuration not stated) | 5 | 1.5 |
| Cc1[nH]c(=S)c(C#N)c(C)c1CC(=O)c1ccc(Br)cc1 | 13 | -2.1 |

Next records.
| SMILES | Sa helicase inh | MgrA-DNA mod |
| --- | --- | --- |
| Cc1ccc(C(=O)Nc2cccc(C(F)(F)F)c2)cc1 | 17 | 1.4 |
| COc1ccc(C(=O)Sc2ccccc2)cc1 | x | -1.3 |
| CN(Cc1ccccc1)C(=O)c1cc2ncc(Br)cn2n1 | 6 | 5.5 |
| O=c1c2c3c(sc2nc2n1CCC2)CCCCC3 | 9 | 2.6 |
| Cn1c(=O)c2sccc2n2c(CCCC(=O)NCc3ccc(F)cc3)nnc12 | 8 | x |
| CCCCN(C)C(=O)c1oc(=O)c2ccccc2c1-c1ccc(C)cc1 | 9 | 0.9 |
| COc1ccccc1NC(=O)c1cn(-c2ccccc2)nc1-c1cccnc1 | 0 | 0.3 |
| Cc1ccc(NC(=O)/C(C#N)=C/c2cn(CC(=O)NCc3ccco3)c3ccccc23)cc1Cl | 5 | 2.5 |
| Cc1cccc(C2CCCCC2)c1O | 0 | -1.7 |
| N#C/C(C(=O)c1ccccc1)=C1/Nc2ccccc2C1=O | -4 | 1.7 |
| COC(=O)Cc1c(C)c2ccc(OCC(N)=O)c(C)c2oc1=O | -10 | -0.2 |
| C#CC1(NC(=O)NCCCCCCNC(=O)NC2(C#C)CCCCC2)CCCCC1 | x | 3.9 |
| Nc1c(S(=O)Cc2ccccc2)sc2nc(-c3cccs3)cc(-c3ccccc3)c12 (configuration not stated) | -7 | 1.1 |
| COC(=O)c1nc(-c2ccccc2)oc1N(C)C | 15 | x |
| CCOC(=O)c1c(C)oc2c1c(C=NC(C)c1ccccc1)c(O)c1ccccc12 (configuration not stated) | 1 | 1.5 |
| COc1ccc(-c2onc3ccc(Br)cc23)cc1 | x | 31 |
| CCC(=O)Nc1nonc1-c1nc2ccccc2n1CCC(C)C | 19 | x |
| C=CCNc1ncnc2c1ncn2C1OC(CO)C(O)C1O (configuration not stated) | x | 1.4 |
| CCN(CC)/C(C)=N/S(=O)(=O)c1ccc(Cl)cc1 | -10 | x |
| O=C(Nc1ccc(-c2csnn2)cc1)c1ccccc1C(F)(F)F | x | -0.9 |
| COC(=O)c1ccc(Oc2cccc(C(F)(F)F)c2)nc1 | x | 0.7 |
| CCC(NC)c1ccco1 (configuration not stated) | 4 | -3.2 |
| O=C(O)CSCC(=O)NC1CCN(Cc2ccccc2)CC1 | x | -1.5 |
| Cc1ccc(N(C)C(=O)N2CCN(C(=O)N(C)c3ccc(C)cc3)CC2)cc1 | -16 | 3.4 |
| OC(Cn1ccnc1)c1ccccc1 (configuration not stated) | 5 | x |
| O=C(O)c1ccc(-c2ccccc2)cc1 | -2 | 5.2 |
| CN1C(C)(C)CC(NC(=O)Nc2ccc(F)cc2)CC1(C)C | 8 | 0.5 |
| Cc1cccc(NC(=O)COC(=O)CC2CCCC2)c1C | -2 | x |
| O=C(O)c1cc(N=Cc2ccccc2)ccc1O | x | 2.8 |
| CC(NC(=O)C1=NNC(=O)CC1)C12CC3CC(CC(C3)C1)C2 (configuration not stated) | -4 | x |
| COc1ccc(C2CC(c3nc4ccccc4[nH]3)=NN2C(=O)c2ccc(Br)o2)cc1 (configuration not stated) | 21 | 0.8 |
| O=C(/C=C/c1cn(-c2ccccc2)nc1-c1cc2ccccc2o1)OCC(=O)c1ccc[nH]1 | -4 | x |

Screening data (PubChem BioAssay)
